Sa growth 42C: inhibitors of Staphylococcus aureus growth at 42 °C | S. aureus RN4220 growth, OD600, 20 h; hits give low values | relative growth, % (test concentration not listed) | 0.53% of 170,000 active | AID 720641;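 active means growth at 42 °C up to 50% and 20 or more points under that at 30 °C, or under 10% at both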;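 further: 300 nL library stock went into each well; scaled to the means of positive and negative controls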
GIV Gai3 FP: inhibitors of GIV GBA-motif binding to rat Galpha-i3. P08753. Galpha-i3/FITC-GIV peptide fluorescence polarization, 90 min; hits give low values; scaled: aluminum fluoride 0%, vehicle 100%. percent of control (FP), % (test concentration not listed). 0.42% of 210,000 active. AID 1224905;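 active means replicate mean at 85% of control or lower, very high polarization wells dropped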;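 further: wells of about 15 µL received 100 nL stock; the first replicate is given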
Target sequence (P08753 whole entry, looked up): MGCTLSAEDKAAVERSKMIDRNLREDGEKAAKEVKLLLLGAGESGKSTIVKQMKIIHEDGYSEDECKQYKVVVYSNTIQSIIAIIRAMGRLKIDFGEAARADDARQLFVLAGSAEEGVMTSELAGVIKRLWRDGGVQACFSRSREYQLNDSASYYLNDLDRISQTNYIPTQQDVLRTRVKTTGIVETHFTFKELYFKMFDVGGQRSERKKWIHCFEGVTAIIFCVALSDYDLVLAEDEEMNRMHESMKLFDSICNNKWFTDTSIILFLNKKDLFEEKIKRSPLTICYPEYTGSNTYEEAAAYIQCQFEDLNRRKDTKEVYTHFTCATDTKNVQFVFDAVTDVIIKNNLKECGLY
HCMV NEC inh: inhibitors of HCMV UL50-UL53 nuclear egress complex interaction. 0.15% of 190,000 active. HTRF UL50-UL53 interaction, normalized percent inhibition. inhibition, % (concentration not given with the values);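 active means both replicates at 50% or more, plus weaker picks with an unusually low signal ratio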;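 further: stock transfer was 100 nL into about 20 µL; 0% = negative control wells and 100% = wells with untagged competitor protein; inactives centre near -12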
Sa growth 42C second temp: second read-out of Sa growth 42C, no call of its own (marks repeat the call); relative growth, %; measured here: growth at 30 °C;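 optical density after 20 h as mean of two plates; 100% = untreated growth and lower means inhibition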
Active calls of the source: *; / = no result given; & = joins results of further samples. No enrichment for hits; 0.79% or so of the library scored in one or more.

SMILES	Sa growth 42C	Sa growth 42C second temp	GIV Gai3 FP	HCMV NEC inh
CCOc1ccc(NC(=O)CSc2ncc3c(n2)-c2ccccc2N(Cc2ccccc2C)S3(=O)=O)cc1	90	83	103	/
COc1ccc(CN2C(=O)N(Cc3cc(=O)n4ccccc4n3)c3ccccc3S2(=O)=O)cc1	94	84	103	-33
Nc1nc(SCCO)[nH]c(=O)c1NC(=O)c1ccccc1F	105	91	104	-20
CC(C)c1csc(NC(=O)COc2ccccc2-c2nc(C(C)C)no2)n1	/	/	100	-8
O=C(O)C1C2C=CC(O2)C1C(=O)NCCCn1ccnc1 (stereo unspecified)	96	94	106	5
O=C(NCC1CC1)c1cc2ccccc2oc1=O	108	87	98	/
CCN(CC)CCNC(=O)C(=O)NCC(c1cccnc1)N1CCN(c2ccc(F)cc2)CC1 (stereo unspecified)	112	92	104	-25
O=C(CN1C(=O)COc2ccccc21)N(Cc1nc2ccccc2c(=O)[nH]1)CC1CCCO1 (stereo unspecified)	91	94	/	-1
CCCN(CCC)C(=O)Cn1ncc2c(=O)oc3ccc(C)cc3c21	93	93	102	/
S=C(c1ccncc1)N1CCOCC1	116	97	98	-13
CCOC(=O)C1=C(C)N=c2s/c(=C\c3ccc(O)c(Br)c3)c(=O)n2C1c1ccc(OC)c(OC)c1 (stereo unspecified)	/	/	71*	-12
O=C(CSc1nnc(-c2ccc3c(c2)OCO3)o1)Oc1ccccc1	103	85	102	-22
Cc1cc(NS(=O)(=O)c2ccc(N3C(=O)c4ccccc4C3=O)cc2)no1	68	80	100	-29
C/C(Cn1cc[n+](C)c1)=N/O	96	93	107	-2
Cc1noc(C)c1Cn1nc(C(=O)O)c2ccccc2c1=O	104	98	/	16
COC(=O)C1=C(C)NC(SCC(=O)C23CC4CC(CC(C4)C2)C3)=C(C#N)C1c1cccs1 (stereo unspecified)	98	81	/	-13
CCC(=O)N(c1nnc(SCCN2C(=O)c3ccccc3S2(=O)=O)s1)C1CC1	97	85	/	-4
Cc1sc2ncn(CC(=O)NCC(=O)N3CCN(c4ccc(F)cc4)CC3)c(=O)c2c1C	/	/	105	-17
O=C(CSc1ccccc1)Nc1ccc(F)cc1	110	81	/	-7
CC(C)C(=O)Nc1ccc2c(c1)C(=O)Nc1ccccc1O2	/	/	99	-26

Some of these compounds in order of length of the SMILES, smallest number first:
SMILES	Sa growth 42C	Sa growth 42C second temp	GIV Gai3 FP	HCMV NEC inh
O=C(CSc1ccccc1)Nc1ccc(F)cc1	110	81	/	-7
Cc1noc(C)c1Cn1nc(C(=O)O)c2ccccc2c1=O	104	98	/	16
CCOC(=O)C1=C(C)N=c2s/c(=C\c3ccc(O)c(Br)c3)c(=O)n2C1c1ccc(OC)c(OC)c1 (stereo unspecified)	/	/	71*	-12

Other structures:
SMILES	Sa growth 42C	Sa growth 42C second temp	GIV Gai3 FP	HCMV NEC inh
Cc1cccc2cc(C3CC(c4cccs4)=NN3C(=O)CCC(=O)O)c(Cl)nc12 (stereo unspecified)	/	/	102	-23
Cc1ccc(/C=C/C(=O)NCC2CCN(C(=O)/C=C/c3ccc(C)o3)CC2)o1	104	87	112	-38
CC1(C)CC(=O)C2=C(C1)NC(=O)C21C(C#N)=C(N)Oc2ccccc21 (stereo unspecified)	90	73	110	4
COc1ccccc1N1CCN(CCC(=O)O)CC1	91	92	99	17
CC(=O)C1=C(OC(=O)C(C)C)c2ccccc2S(=O)(=O)N1Cc1ccccc1	94	77	104	11
Cc1nccc2[nH]c(=O)c(C(=O)NCc3ccccc3)cc12	86	84	106	1
NC(=O)C1=C(N)SC2C(=O)N(c3ccc4ccccc4c3)C(=O)C2C1c1ccccc1O (stereo unspecified)	78	67	/	-45
COc1ccc(Cl)cc1N(C(C)C(=O)O)S(C)(=O)=O (stereo unspecified)	99	105	102	6
Cc1cc(=O)oc2cc(OCC(O)Cn3cnc4ccccc43)ccc12 (stereo unspecified)	112	76	105	0
Cc1cccc(C(=O)Nc2c(-c3ccc(F)cc3)nc3ccccn23)c1	101	88	107	22
Cc1cc(C)c2oc(C(=O)Nc3c(C(=O)Nc4ccccc4)oc4ccccc34)cc(=O)c2c1	93	88	103	-9
CC(C)(C)C(=O)Nc1nc(-c2ccccc2)cc(-c2ccccc2)n1	/	/	101	5
O=C(Cn1cnc2nc3c(cc2c1=O)CCCC3)N1CCN(c2ccccc2)CC1	95	91	102	/
CCC(=O)N/C(N)=N\c1nc(C)c2ccccc2n1	104	80	104	/
O=C(NC1CCCCC1)c1ccc2c(c1)N(Cc1cccc(F)c1)C(=O)c1ccccc1S2	116	92	105	/
Cc1ccc(C2=NNC(C(O)C(O)C(O)C(O)CO)S2)cc1 (stereo unspecified)	103	67	102	-17
COC(=O)CSc1nc2ccc(C)cc2[nH]1	111	88	/	-9
NCc1n[nH]c(=S)n1CCc1ccccc1	96	88	103	-28
Cc1ccc(Cl)cc1N1CCN(C(=O)c2cc(S(=O)(=O)N3CCCC3)c[nH]2)CC1	94	103	108	/
CS(=O)(=O)c1ccc(-c2cccc(NC(=O)Cc3cccs3)c2)nn1	112	97	110	-7
N#C/C(C(=O)N1CCCCC1)=C(/S)Nc1ccccc1	111	78	99	-10
Cc1noc(C)c1S(=O)(=O)Nc1ccc(C(=O)N2CCc3ccccc3C2)cc1	106	97	92	6
Cc1oc(NC(=O)C(F)(F)F)c(C#N)c1C	98	87	98	3
CCOC(=O)c1nc(Nc2ccc(F)c(F)c2)c2c(CC)noc2n1	/	/	107	1
COc1ccc(N2CCN(/C=C3\C(=O)N(c4ccc(C)cc4)C(=O)c4ccccc43)CC2)cc1	114	89	/	-16
Cc1ccc(-c2noc(-c3ccccc3NC(=O)c3ccccc3)n2)cc1	98	89	99	-3
COc1ccc(-c2cc(C(=O)N3CCN(C)CC3)no2)cc1	88	85	110	/
O=C(COc1ccc(F)cc1)N(c1ccccn1)C1CCCCC1	95	98	/	-6
CNc1nc(Nc2ccc(OC(F)(F)F)cc2)nc(OCC(F)(F)F)n1	99	89	/	-11
CCOC(=O)c1c(C)n(C)c2ccc(OCC)cc12	97	78	/	-10

Individual results from the list:
CNc1nc(Nc2ccc(OC(F)(F)F)cc2)nc(OCC(F)(F)F)n1 | HCMV NEC inh = -11
Cc1ccc(-c2noc(-c3ccccc3NC(=O)c3ccccc3)n2)cc1 | HCMV NEC inh = -3
Cc1oc(NC(=O)C(F)(F)F)c(C#N)c1C | HCMV NEC inh = 3

Back to the main list with the two entries that preceded the break.
SMILES	Sa growth 42C	Sa growth 42C second temp	GIV Gai3 FP	HCMV NEC inh
CNc1nc(Nc2ccc(OC(F)(F)F)cc2)nc(OCC(F)(F)F)n1	99	89	/	-11
CCOC(=O)c1c(C)n(C)c2ccc(OCC)cc12	97	78	/	-10
Cc1ccc(-c2nnc(N3CCOCC3)c3ccccc23)cc1S(=O)(=O)N1CCCCC1	/	/	104	4
O=C(O)CC1(O)c2ccccc2C(=O)N1Cc1ccccc1 (stereo unspecified)	95	94	/	2
CCC(C)NC(=O)C1CCN(S(=O)(=O)c2ccc3c(ccn3CC)c2)CC1 (stereo unspecified)	105	99	104	/
CCCCN1C=C(OC(=O)c2ccccc2Cl)c2ccccc2S1(=O)=O	/	/	95	-16
CCc1cccc(NC(=O)C2CCN(S(=O)(=O)c3ccc4c(c3)CC(C)N4C(C)=O)CC2)c1 (stereo unspecified)	/	/	113	-3
O=C(CC1CCN(S(=O)(=O)c2ccc(Cl)cc2)CC1)NCCN1CCOCC1	/	/	101	-9
CC#C[C@]1(O)CC[C@H]2[C@@H]3CCC4=CC(=O)CCC4=C3[C@@H](c3ccc(N(C)C)cc3)C[C@@]21C	99&93	88&80	98&94	-42&-8&-18&-18&-14&2
CC1CCCCN1C(=O)c1ccccc1NS(=O)(=O)c1ccc2ccccc2c1 (stereo unspecified)	159	83	/	-7
Cc1ccc(N2C(=O)C3CNC4(C(=O)Nc5ccc(Br)cc54)C3C2=O)cc1 (stereo unspecified)	121	85	107	-26
CCCCC(=O)Nc1ccc2c(c1)nc1n2CCN(C(C)C)C1	/	/	106	-32

Entries of single compounds, quoted from the list:
Listed for CC(C)C(=O)Nc1ccc2c(c1)C(=O)Nc1ccccc1O2 : Sa growth 42C: /; Sa growth 42C second temp: /; GIV Gai3 FP: 99; HCMV NEC inh: -26
Listed for CS(=O)(=O)c1ccc(-c2cccc(NC(=O)Cc3cccs3)c2)nn1 : Sa growth 42C: 112; Sa growth 42C second temp: 97; GIV Gai3 FP: 110; HCMV NEC inh: -7
Listed for O=C(CSc1nnc(-c2ccc3c(c2)OCO3)o1)Oc1ccccc1 : Sa growth 42C: 103; Sa growth 42C second temp: 85; GIV Gai3 FP: 102; HCMV NEC inh: -22

Following part.
SMILES	Sa growth 42C	Sa growth 42C second temp	GIV Gai3 FP	HCMV NEC inh
CC1CC(C)CN(c2nnc(NC(=O)c3csc4c3CCCC4)s2)C1 (stereo unspecified)	95	98	99	-10
O=C1CC(CSc2nnc(-c3ccc(Cl)cc3)n2-c2ccccc2)=NN1	88	93	103	-17
COc1ccc(-n2c(-c3ccc(Cl)cc3)cnc2SCc2nccn2C)cc1	120	93	/	0
Cc1ccc(Nc2nc3ccc(C)cc3nc2-n2nc(C)cc2C)c(C)c1	115	85	104	-10
COc1cccc(CNCCCN2CCOCC2)c1OCc1ccc(C)cc1	120	85	97	-6
Cc1nn(-c2ccc(Cl)cc2)c2sc(C(=O)NC3=NCCS3)cc12	87	35	/	-1
CCOC(=O)C1CCC(CNCc2ccccc2C)CC1 (stereo unspecified)	128	87	103	/
COc1ccc(C2(c3ccc(OC)cc3)NC(=O)N(Cn3nnc4ccccc4c3=O)C2=O)cc1	104	95	/	-36
COC(=O)c1sccc1NC(=O)Nc1ccc2nc(N3CCOCC3)cc(C)c2c1	/	/	100	-9
CCCCNC(=O)CSc1nc2nc(C)c(Cc3c(F)cccc3Cl)c(C)n2n1	107	92	99	7
COc1ccc(N=C2SC(C(=O)N3CCN(c4ccc(F)cc4)CC3)CC(=O)N2C)cc1 (stereo unspecified)	/	/	98	-9
CCc1ccc(C(=O)NCc2cccs2)s1	72	99	102	-4
COc1ccc(NC(=O)c2ccco2)cc1NC(=O)COc1ccc(Cl)c(C)c1	104	87	103	-24
CCC#CCN(c1ccccc1)c1ccccc1	95	87	103	-7
O=C(NCc1cccc(Cl)c1)c1ccc2c(Cl)c3c(nc2c1)CCCC3	100	89	97	-41
CN(C)c1ncc(C(=O)NCc2ccccc2Cl)cn1	93	92	102	/
Cn1nc(C(=O)N2CCN(S(=O)(=O)c3ccccc3)CC2)c2ccccc2c1=O	92	98	/	-10
Cc1cccc(NC(=O)CN2C(=O)c3cccnc3Oc3ccc(Cl)cc32)c1C	95	103	112	/
CC(=O)NN=C1CCC(=NNC(C)=O)CC1	121	99	98	-7
COc1ccc(C(C#N)N2N=C(C)CC2c2ccccc2)cc1 (stereo unspecified)	95	91	/	-7
O=C1c2cccnc2C(=O)N1Cc1ccc(F)cc1S(=O)(=O)N1CCN(C2CCCCC2)CC1	/	/	100	3
CC1CCCCN1C(=O)C1CCCN(S(=O)(=O)c2ccccc2)C1 (stereo unspecified)	100	88	101	-5
O=C(CSc1ccccn1)NC(=O)c1ccccc1	81	81	/	-10
O=c1[nH]c2ccc(S(=O)(=O)NCc3cccn3Cc3ccccc3)cc2o1	/	/	109	-19
